# VCAM1 TNFa inh = reduces TNF alpha induced VCAM1 expression in HUVEC | HUVEC TNFa-induced VCAM-1 immunofluorescence, high-content imaging | inhibition, % at 2 µM | 0.48% of 95,000 active | AID 802;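 active = inhibition above the batch mean plus 3 SD, with images confirmed as a hit by eye, cut at about 37% in these data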;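 note: 0% = TNF-stimulated DMSO wells and 100% = unstimulated control wells; not every result past the cut was called active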
# CYP2C9 inh = inhibitors of human CYP2C9; inhibition, % at 5 µM; P11712; 20% of 96,000 active; CYP2C9 Supersomes, luciferin-H conversion, luminescence;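 active = blocking of liver enzyme CYP2C9 beyond about 50% at 5 µM, limit read from the data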; note: values of inactives mirror those of a sister screen read the other way
# Target sequence (P11712 whole entry, looked up): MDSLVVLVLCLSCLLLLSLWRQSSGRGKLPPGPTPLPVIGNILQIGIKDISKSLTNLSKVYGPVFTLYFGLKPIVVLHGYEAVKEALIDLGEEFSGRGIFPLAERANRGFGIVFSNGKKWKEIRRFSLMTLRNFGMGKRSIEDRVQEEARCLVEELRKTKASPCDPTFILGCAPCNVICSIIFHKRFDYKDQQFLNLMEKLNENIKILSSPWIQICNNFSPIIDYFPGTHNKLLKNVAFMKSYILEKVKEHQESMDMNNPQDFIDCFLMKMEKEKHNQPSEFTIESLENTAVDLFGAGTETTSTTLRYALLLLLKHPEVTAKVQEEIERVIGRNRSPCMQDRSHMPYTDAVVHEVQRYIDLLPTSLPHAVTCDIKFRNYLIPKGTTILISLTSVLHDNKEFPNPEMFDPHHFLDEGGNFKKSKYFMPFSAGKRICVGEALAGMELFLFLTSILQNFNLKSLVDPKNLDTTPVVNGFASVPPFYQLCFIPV
# HUVEC tox TNFa = toxic to HUVEC cells under TNF alpha stimulation. HUVEC TNFalpha-stimulated, Hoechst cell count, imaging. cell count reduction, % at 2 µM. 0.17% of 93,000 active. AID 848;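 active = cell count reduction exceeding the screen mean by over 5 SD, scaled to untreated wells per plate, cut at about 78% in these data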;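 note: cells counted after 24 h of TNF alpha exposure following the 1 h pretreatment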
# CYP2C9 activ = activators of human CYP2C9; activation factor at 5 µM; 1.4% of 96,000 active; recombinant CYP2C9, luciferin-H conversion, luminescence; active compounds read high; factor 1 = untreated enzyme, 0 = blocked; AID 1024; P11712;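 active = activation factor of 2 or more for CYP2C9 at a 5 µM dose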;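 note: 0 = sulfaphenazole-blocked wells and 1 = vehicle-only wells; values of inactives mirror those of a sister screen read the other way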
# Candida biofilm = kills Candida albicans biofilms; C. albicans biofilm + clotrimazole, Alamar Blue; 0.14% of 85,000 active; AID 834; inhibition, % at 6 µM;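 active = inhibition above 20%; inactive = inhibition below 20%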;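 note: preformed 24 hr biofilms exposed to compound for 48 hr; 0% = biofilm without compound and 100% = blank killed by clotrimazole plus chlorhexidine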
# The depositor's hits bear a star; . = no result given.
(1) CC(=O)CC(c1ccc([N+](=O)[O-])cc1)c1c(O)c2ccccc2oc1=O (stereo not drawn)
(2) CCCC(=O)Nc1ncnc2c1ncn2[C@@H]1O[C@@H]2COP(=O)(O)O[C@H]2[C@H]1OC(=O)CCC
(3) COC(=O)CCC(=O)CN
(4) Oc1c(Cl)cc(Cl)c(Cl)c1Cc1c(O)c(Cl)cc(Cl)c1Cl
(5) CC1=NS(=O)(=O)c2cc(Cl)ccc2N1
(6) COc1ccc(CC(=O)Nc2cccc(-c3nnc(-c4ccco4)o3)c2)cc1
(7) Nc1ccc(S(=O)(=O)Nc2ccccn2)cc1
(8) OCCCCCN=c1cc(-c2ccccc2)oc2ccc(Cl)cc12

Compound | 1 | 2 | 3 | 4 | 5 | 6 | 7 | 8
VCAM1 TNFa inh | 13 | . | . | . | . | -2 | . | 27
CYP2C9 inh | 76* | . | . | . | . | . | . | 1
HUVEC tox TNFa | -5 | . | . | . | . | -20 | . | -18
CYP2C9 activ | 0.2 | . | . | . | . | . | . | 1
Candida biofilm | . | -2 | 7 | 5 | 8 | . | 11 | 6

# Three entries out of the list above, arranged by their value in VCAM1 TNFa inh, rising:
nr	canonical_smiles	VCAM1 TNFa inh	CYP2C9 inh	CYP2C9 activ
6	COc1ccc(CC(=O)Nc2cccc(-c3nnc(-c4ccco4)o3)c2)cc1	-2	.	.
1	CC(=O)CC(c1ccc([N+](=O)[O-])cc1)c1c(O)c2ccccc2oc1=O (stereo not drawn)	13	76*	0.2
8	OCCCCCN=c1cc(-c2ccccc2)oc2ccc(Cl)cc12	27	1	1

# The listing picks up, starting 4 compounds before the break.
(5) CC1=NS(=O)(=O)c2cc(Cl)ccc2N1
(6) COc1ccc(CC(=O)Nc2cccc(-c3nnc(-c4ccco4)o3)c2)cc1
(7) Nc1ccc(S(=O)(=O)Nc2ccccn2)cc1
(8) OCCCCCN=c1cc(-c2ccccc2)oc2ccc(Cl)cc12
(9) COC(=O)c1ccc(NC(=O)Cn2nc(-c3ccncc3)nc2SCC(=O)Nc2nccs2)cc1
(10) CN(C)S(=O)(=O)c1cccc(NC(=O)COC(=O)c2ccc(Br)o2)c1
(11) Fc1ccc(C(c2ccc(F)cc2)N2CCN(C/C=C/c3ccccc3)CC2)cc1
(12) CN(C)CCCN1c2ccccc2Sc2ccc(C(F)(F)F)cc21
(13) CCC(=O)Nc1cccc(-c2nnc(-c3cccc(NC(=O)CC)c3)o2)c1
(14) O=S(=O)(N/N=C\c1cn(-c2ccccc2)nc1-c1ccccc1)c1ccccc1
(15) CN(C)CCC(c1ccc(Br)cc1)c1ccccn1 (stereo not drawn)
(16) Cc1nc2c(C(=O)NCCC(C)C)c[nH]n2c(=O)c1Cc1ccccc1F
(17) COc1cc(/C=C2/C(=N)N3C=CSC3=NC2=O)ccc1OCCCOc1c(C)cccc1C
(18) C=C(CC)C(=O)c1ccc(OCC(=O)O)c(Cl)c1Cl
(19) O=C(c1ccccc1)N1CCN(Cc2ccccc2)CC1

Compound | 5 | 6 | 7 | 8 | 9 | 10 | 11 | 12 | 13 | 14 | 15 | 16 | 17 | 18 | 19
VCAM1 TNFa inh | . | -2 | . | 27 | 15 | 22 | . | . | 3 | 5 | . | 14 | 2 | . | 3
CYP2C9 inh | . | . | . | 1 | . | . | . | . | . | . | . | . | . | . | .
HUVEC tox TNFa | . | -20 | . | -18 | -11 | -6 | . | . | -4 | -1 | . | -31 | -11 | . | -3
CYP2C9 activ | . | . | . | 1 | . | . | . | . | . | . | . | . | . | . | .
Candida biofilm | 8 | . | 11 | 6 | . | 4 | 6 | 11 | 3 | . | 10 | 3 | 8 | 12 | 8

# Pulled one by one from the entries so far, 2 records:
(15) CN(C)CCC(c1ccc(Br)cc1)c1ccccn1 (stereo not drawn)
(19) O=C(c1ccccc1)N1CCN(Cc2ccccc2)CC1

Compound | 15 | 19
VCAM1 TNFa inh | . | 3
CYP2C9 inh | . | .
HUVEC tox TNFa | . | -3
CYP2C9 activ | . | .
Candida biofilm | 10 | 8

# Screening results (PubChem BioAssay)

# A portion of the library; rates above refer to the full screens.
